TRPML1 inh = qHTS for Inhibitors of the Human Mucolipin Transient Receptor Potential 1 (TRPML1); Mucolipin-1 (Homo sapiens), Q9GZU1; TRPML1-inducible cells, Ca2+ dye fluorescence, FDSS; stronger effect = lower value; inhibition of EC80 agonist-evoked calcium signal; activity change, negative = inhibition, % (concentration not given with the values); actives 0.02% (n = 390,000); AID 624415, 2012; in the data active means activity change below about -50%; inconclusive means about -30% to -50%; inactive means above about -30%;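 also: stimulus is agonist 54-4 at its EC80 concentration; % is scaled to controls: 0 for no effect and ±100 for the full control effect; compound concentration not given in the record; the text of the record puts the active cut at -80%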
Target sequence (Q9GZU1 whole entry, looked up): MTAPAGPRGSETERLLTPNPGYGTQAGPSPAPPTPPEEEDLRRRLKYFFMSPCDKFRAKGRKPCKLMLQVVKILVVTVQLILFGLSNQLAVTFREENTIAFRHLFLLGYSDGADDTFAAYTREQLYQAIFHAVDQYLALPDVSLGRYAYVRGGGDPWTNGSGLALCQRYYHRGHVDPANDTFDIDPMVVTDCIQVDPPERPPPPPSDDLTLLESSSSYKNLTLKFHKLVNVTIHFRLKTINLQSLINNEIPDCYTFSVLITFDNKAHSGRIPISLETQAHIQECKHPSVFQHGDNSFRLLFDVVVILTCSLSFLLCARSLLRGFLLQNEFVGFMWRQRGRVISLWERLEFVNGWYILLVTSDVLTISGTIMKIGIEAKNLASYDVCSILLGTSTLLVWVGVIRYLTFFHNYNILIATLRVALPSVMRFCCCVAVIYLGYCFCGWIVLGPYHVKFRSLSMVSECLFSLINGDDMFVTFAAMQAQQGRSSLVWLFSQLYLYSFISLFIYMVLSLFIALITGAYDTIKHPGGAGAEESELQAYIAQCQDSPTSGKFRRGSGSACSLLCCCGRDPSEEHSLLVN
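Tet-induced TRPML1-DL cells loaded with Ca8 no-wash calcium dye were read kinetically on FDSS. Compound addition was followed by EC80 agonist 54-4 (4 uM final); inhibition was read over 110 s.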
ClpP mod = qHTS Assay for Activators of ClpP; ATP-dependent Clp protease proteolytic subunit (Bacillus subtilis (strain 168)), P80244; purified B. subtilis ClpP, FRET peptide cleavage, 20 min; Potency, µM (top dose mostly 57.5 µM), for inactives: top-dose activity change, negative = active; actives 1.9% (n = 340,000); AID 651965, 2013; active = well fitted falling curve with a large enough effect; inconclusive = small, poorly fitted or top-dose-only effect; inactive = no such curve, though single readings can be large or run the other way; also: potency is read from the fitted curve at half-maximal effect; the source files actives as falling curves though it sought activators and does not explain the sign; nearly all actives have a fitted effect of over 65% in size; many hits overshoot -100%
Target sequence (P80244 whole entry, looked up): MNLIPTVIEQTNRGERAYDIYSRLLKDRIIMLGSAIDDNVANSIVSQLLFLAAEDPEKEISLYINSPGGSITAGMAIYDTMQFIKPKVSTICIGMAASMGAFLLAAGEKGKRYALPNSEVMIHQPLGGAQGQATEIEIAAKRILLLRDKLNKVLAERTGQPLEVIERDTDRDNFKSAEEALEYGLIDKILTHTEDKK
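Buffer: 100 mM Tris/HCl pH8, 100 mM KCl, 0.05% low protease BSA, 2.5% glycerol, 0.01% Tween-20. ClpP 10 microg/mL final; 20 min RT; delta FRET normalized to ADEP and DMSO controls.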
gsp agonist = qHTS for Agonist of gsp, the Etiologic Mutation Responsible for Fibrous Dysplasia/McCune-Albright Syndrome: qHTS | gsp mutant cells, cAMP HTRF, 30 min; control for the full effect not named in the record | Potency, µM (titrated, usually from 76.9 µM), for inactives: at the highest dose activation (cAMP increase), hits mostly activators | actives 0.13% (n = 340,000); active = well fitted activation curve with a large enough effect; inconclusive = small, poorly fitted or top-dose-only effect, or another doubt; inactive = no such curve, though single readings can be large or run the other way; cell line not stated here;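 also: phosphodiesterase inhibitor Ro 20-1724 added with compounds to block cAMP breakdown; potency is read from the fitted curve at half-maximal effect; nearly all actives have a fitted effect of over 60% in size; about a fifth of the inactives were tested at one dose only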
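Cells stably selected in G418 were plated at 2000/well, grown 16-24 hr, then given compounds in DMSO with the PDE inhibitor […] (300 uM solution added) for 30 min at 37C; cAMP was read by HTRF.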
gsp antag = qHTS for Antagonists of gsp, the Etiologic Mutation Responsible for Fibrous Dysplasia/McCune-Albright Syndrome: qHTS; Potency, µM (titrated, usually from 76.9 µM), inactives show at the highest dose activity change, negative = inhibition, hits mostly inhibitors; actives 0.4% (n = 340,000); gsp-mutant cells, cAMP HTRF, 30 min; control for the full effect not named in the record; active = falling curve of any shape with a large fitted effect; inconclusive = falling curve, mostly with a smaller effect; inactive = flat or rising curve; cell line not stated here;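 also: intracellular cAMP measured with PDE inhibitor Ro 20-1724 present during compound exposure; potency is read from the fitted curve at half-maximal effect; % is scaled to controls: 0 for no effect and ±100 for the full control effect; nearly all actives have a fitted effect of over 65% in size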
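G418-selected cells were plated in DMEM/10% FBS for 16-24 h at 37C, then treated with compounds plus the PDE inhibitor […] (300 uM solution added) for 30 min at 37C. Intracellular cAMP was measured by HTRF after 30 min lysis at room temperature.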
TRPML1 agonist = qHTS for Agonists of the Human Mucolipin Transient Receptor Potential 1 (TRPML1) | AID 624414, 2012 | actives 0.12% (n = 410,000) | TRPML1-expressing cells, Ca2+ dye fluorescence, FDSS; host cell line not named in the record; reference of the full effect not given here | activation, % (concentration not given with the values) | Mucolipin-1 (Homo sapiens), Q9GZU1; in the data active = activation above about 50%; inconclusive = about 30% to 50%; inactive = below about 30%; also: 0% is about no effect; the text of the record puts the active cut at 80%
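Tet-induced TRPML1-DL cells, 1,500 per well, cultured overnight, were loaded with a no-wash Ca2+ dye for 45–90 min. Calcium fluorescence was recorded on the FDSS for 110 s after compound addition, before the EC80 agonist (4 uM 54-4) was added.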
Menin-MLL FL inh = qHTS Assay for Inhibitors Targeting the Menin-MLL Interaction in MLL Related Leukemias: Competition With Fluorescein Labeled MLL-derived Peptide; Fluorescence polarization, fluorescein-MLL peptide displacement from menin; 290,000 tested, under 10 active; FP activity change, % at 61.4 µM; inconclusive = falling polarisation curve, or a change in total fluorescence; inactive = total fluorescence flat and polarisation flat or rising; no compound was filed as active; the % refers to the polarisation; negative = inhibition;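 also: % of control where 0% means no effect; inhibitors lower the polarisation; unlabelled MLL peptide was the positive control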
* marks the source's active call; other numbers are inactive results; ? = inconclusive; . = no result given; & = joins results of further samples; [ ] = remark or other dose.

The first 2 entries as a preview:
SMILES | TRPML1 inh | ClpP mod | gsp agonist | gsp antag | TRPML1 agonist | Menin-MLL FL inh
CCC(=O)NC(c1ccccc1)c1c(O)ccc2ccccc12 (stereo not drawn) | -3.0 | 3.6% | 0.4% | -23.6% | 0.5 | 7.6
Cc1ccc(NC(=O)CN(C)C(=O)C2CCC2)cc1 | 14.4 | 0.9% | -29.5% | 5.9% | -0.9 | .

Results (from the top)
SMILES | TRPML1 inh | ClpP mod | gsp agonist | gsp antag | TRPML1 agonist | Menin-MLL FL inh
CCC(=O)NC(c1ccccc1)c1c(O)ccc2ccccc12 (stereo not drawn) | -3.0 | 3.6% | 0.4% | -23.6% | 0.5 | 7.6
Cc1ccc(NC(=O)CN(C)C(=O)C2CCC2)cc1 | 14.4 | 0.9% | -29.5% | 5.9% | -0.9 | .
O=C(CCCn1c(=O)[nH]c2ccsc2c1=O)N1CCN(c2ccc(Cl)cc2)CC1 | 0.7 | -0.2% | . | . | -0.9 | .
C/C=C/c1ccccc1OCc1ccc(C(=O)O)o1 | 13.6 | -4.4% | 10.9% | -30.4% | 3.8 | 3.0
O=C(O)c1cc(S(=O)(=O)Nc2ccccc2Cc2ccccc2)ccc1Cl | 31.4 | . | -0.1% | 7.2% | -0.7 | ?
COc1cccc(NC(=S)N(Cc2ccccn2)Cc2ccccc2Cl)c1 | 54.2 | -1.9% | 7.8%[15.4 µM] | -28.3% | 3.1 | -2.7
CCOc1ccc(C(=O)NCC(=O)N2CCN(c3ccc(C(F)(F)F)cn3)CC2)cc1 | 11.8 | -17.2% | -1.9% | 6.8% | 4.1 | .
Cc1ccc(-n2c(C)nnc2SCC(=O)N(C)C2CCS(=O)(=O)C2)cc1 (stereo not drawn) | 2.3 | 0.3% | -4.7% | 11.0% | 0.1 | .
CCCc1ccc2oc(C(=O)N3CCCC3)c(C)c2c1 | 23.3 | 0.7% | -2.2%[15.4 µM] | 0.9% | 2.1 | 29.6
CN1CCN(c2ncnc3c2cnn3-c2ccc(Cl)cc2)CC1 | 18.9 | -15.8% | -0.6% | 4.6% | 1.0 | 3.8
CC1=NNC(=O)C1C(c1ccccc1)C(C#N)C#N (stereo not drawn) | -16.3 | -0.7% | -80.5%[inhibitor] | 5.4% | 2.5 | 6.2
CC(=O)Nc1nc(CCN2C(=O)c3ccccc3C2=O)cs1 | 7.5 | . | -0.4%[15.4 µM] | 10.4% | -0.4 | -3.1
Cn1cccc1C(=O)NNC(=O)COc1ccc(C#N)cc1 | 17.7 | -3.0% | 0.8% | 5.6% | -0.2 | .
O=C(O)CC/C(=N\Nc1ccc(Cl)cc1)c1cccs1 | -0.6 | . | -12.5%[15.4 µM] | -8.4% | -0.8 | 5.1
COC(=O)c1ccc(NC(=O)Cc2ccc(F)cc2)cc1 | 6.8 | . | -0.2% | -2.5% | 0.6 | -3.7
Cc1ccc(S(=O)(=O)NCC(=O)N(CC(=O)NC2CCCCC2)CC2CCCO2)cc1 (stereo not drawn) | -1.4 | -0.8% | -4.5% | 9.5% | 0.0 | 4.6
CC(=O)C(=Nc1cccc(Cl)c1)NNc1ccccc1C | 11.1 | 0.0% | -22.0% | 0.3% | 4.0 | .
CCOC(=O)C1CCN(c2c(C(=O)c3ccc(OC)cc3)cnc3ccccc23)CC1 | 26.6 | 5.4% | . | . | 0.1 | .
CC(O)c1nc2ccccc2n1CC(=O)N1CCN(c2ccccc2)CC1 (stereo not drawn) | 33.5 | -24.0% | -1.5%[15.4 µM] | -0.2% | -1.4 | -5.9
Nn1cnc2cc3ccccc3cc2c1=O | -12.4 | -13.5% | -2.4% | -8.0% | -0.6 | -0.9
CCOc1ccc(C(CC(=O)O)NC(=O)COc2ccccc2OC)cc1OC (stereo not drawn) | -11.0 | . | -0.3%[15.4 µM] | 11.8% | -0.8 | -2.4
COC(=O)C(Cc1ccc(O)cc1)NC(=O)c1ccccc1 (stereo not drawn) | 1.6 | 0.6% | 30.2% | -6.5% | 0.3 | 4.8
O=C1Nc2ccc(Br)cc2C12NNc1ccccc1O2 (stereo not drawn) | -5.0 | 1.8% | 2.6% | -25.8% | 5.8 | ?
CCOc1c(Cl)cc(C(=O)N(Cc2ccc(N(C)C)cc2)Cc2ccco2)cc1Cl | 18.0 | -4.9% | . | . | 0.4 | .
Cc1ccc(N2CCn3c2nc2c3c(=O)n(CCc3ccccc3)c(=O)n2C)cc1C | 17.6 | -1.2% | . | . | -0.7 | .
CC(=O)c1cccc(NC(=O)NNC(=O)c2ccc(-c3ccccc3)cc2)c1 | -8.4 | -2.3% | 8.1% | -11.1% | 0.4 | 1.0
Cc1nn(C(C)c2nc(-c3ccccc3)no2)c(C)c1[N+](=O)[O-] (stereo not drawn) | -8.6 | -0.5% | 16.7% | 1.2% | -0.3 | -1.5
Cc1ccc(N(C)C(=O)N2CCN(S(=O)(=O)c3ccc(C)c(C)c3)CC2)cc1 | -12.1 | 1.1% | ? | ? | 4.5 | -1.1
Cc1cc(C)cc(C(=O)Nc2c3c(nn2-c2ccccc2C)CS(=O)(=O)C3)c1 | 7.0 | -0.7% | . | . | 1.3 | .
O=C(COc1ccccc1F)Nc1cc(S(=O)(=O)N2CCOCC2)ccc1N1CCOCC1 | 14.4 | . | -12.9% | -10.7% | 0.5 | 5.0
Cc1[nH]c2ccccc2c1C(=O)C(=O)Nc1ccc2c(c1)OCCO2 | 28.2 | 0.3% | 11.0% | 9.7% | 1.0 | .
Cc1ccc(NC(=O)c2cc(-c3cc(Cl)ccc3O)n[nH]2)cc1C | -0.9 | 0.6% | -0.2% | 5.9% | -0.3 | 2.4
CCCCN(C)C(=O)C1CCN(Cc2ccc(OCc3ccccc3)cc2)CC1 | 18.8 | 0.2% | -2.5% | 15.1% | -0.2 | 0.0
Cn1c(=O)n(C/C=C/c2ccccc2)c(=O)c2c1nc1n2CCCN1Cc1ccccc1 | 9.5 | -10.9% | -9.0% | 1.5% | 0.7 | 1.3
COc1ccc(N2CC(C(=O)Nc3cccnc3)CC2=O)cc1 (stereo not drawn) | -9.4 | . | -44.8%[inhibitor] | -9.3% | 0.7 | 0.3
CCOc1cccc2sc(NC(=O)c3ccc(S(=O)(=O)N4CCCCC4)cc3)nc12 | 18.4 | ? | . | . | 1.4 | .
Cn1c(SCC(=O)NC2CCCCC2)nnc1-c1ccccn1 | 24.3 | -2.2% | 5.5% | 11.8% | 0.4 | .
C=CCOc1ccc(Br)cc1CNCC | 20.8 | 1.2% | 5.6% | -9.3% | -0.1 | 4.2
O=C(CSc1n[nH]c(=O)n1-c1ccccc1)N1CCOCC1 | 2.1 | 1.1% | 10.3%[15.4 µM] | -2.2% | -0.7 | 0.3
COc1ccccc1-c1nnc(NC(=O)C(C)C)s1 | -1.7 | 31.6µM* | 8.5% | -9.9% | -0.2 | 1.7
COc1ccc(N2CCN(C(=O)CN(Cc3ccc(Cl)cc3)S(C)(=O)=O)CC2)cc1 | -5.9 | -1.9% | 13.2% | -7.7% | 0.5 | 1.5
Cc1ccc(S(=O)(=O)NCC(c2cccnc2)N(C)C)cc1 (stereo not drawn) | -22.0 | -2.4% | ? | ? | 0.3 | 0.0
COc1cc(OC)cc(N2CC(C)(C)C2=O)c1 | 52.8 | . | -1.5%[15.4 µM] | 2.1% | 0.7 | 0.4
Nc1cc(N)nc(CS)n1 | -1.8 | -1.2% | 35.4% | 18.8% | 0.1 | 0.6
O=C(CCCCCNC(=O)N1CCn2c1nc1ccccc12)N[C@H](Cc1ccccc1)C(=O)O | . | -0.6% | . | 5.4% | . | -0.1
CCC(C)N1CC(=O)N2C(c3ccc(OC)cc3OC)c3[nH]c4ccccc4c3C[C@H]2C1=O (stereo partly drawn) | 2.4 | -0.3% | -14.3% | 7.5% | 0.3 | 0.2
Cc1ccc(C)c(NC(=O)C(Sc2ncnc3ccccc23)c2ccccc2)c1 (stereo not drawn) | 2.8 | 1.6% | -16.8% | 7.0% | -0.8 | 4.2
COc1ccc(NC(=S)NCc2ccc(S(N)(=O)=O)cc2)c(OC)c1 | 11.3 | -2.3% | -14.5% | 12.4% | 0.3 | -1.9
O=C(NCCc1ccccn1)c1ccc(OC2CCN(CCc3ccccc3)CC2)cc1 | -2.8 | 1.0% | -41.8%[inhibitor] | -2.1% | 0.3 | .
O=[N+]([O-])c1ccc(/C=N/n2cn[nH]c2=S)cc1 | 8.8 | . | 20.8%[15.4 µM] | -4.8% | 0.4 | -0.7
C=C(C)Cn1c(SCC)nc2ccccc2c1=O | -11.5 | -0.4%&-0.7% | -26.6% | -7.7% | 3.5&-1.1 | -1.0
O=C(Cc1ccccc1)NC(=S)Nc1cccc(C(F)(F)F)c1 | 1.4 | -0.9% | 21.7% | -2.8% | 1.8 | 4.9
Cc1cccc(OCC(=O)Nc2ccc(Cl)c(-c3nc4ccccc4[nH]3)c2)c1 | -15.5 | ? | . | . | 1.5 | .
CCOC(=O)c1c(CN2CCCCC2)n(C)c2ccc(OC)c(S(=O)(=O)c3ccccc3)c12 | 2.2 | -19.3% | -5.9% | -1.4% | -0.7 | -0.1
O=C1CCN(Cc2ccc(O)cc2)CCN1[C@H](CO)Cc1ccccc1 | -4.7 | 1.2%&0.7% | -16.0% | 18.3% | -0.5&0.0 | 0.4
CCOc1ccccc1CNC(=O)CCCn1nc(C)c2sc3ccccc3c2c1=O | -8.6 | -7.2% | . | . | 0.0 | .
O=S(=O)(c1ccc2c(c1)OCCO2)N1CCNCC1 | 2.5 | -0.1% | ? | 4.2% | 0.1 | 1.9
O=C(CSc1ncccn1)NCC1CCCO1 (stereo not drawn) | 4.4 | -0.6% | ? | 6.9% | -0.1 | .
O=C(Nc1ccc(N2CCN(C(=O)c3ccccc3)CC2)cc1)c1cccs1 | 80.0 | . | -2.8% | -15.7% | 1.6 | 2.5
Cc1ccccc1NC(=O)Cc1nc(COC(=O)CC(C)c2ccccc2)cs1 (stereo not drawn) | -10.2 | 0.4% | 5.3%[15.4 µM] | -3.0% | 0.2 | .
CC(C)(C)C(=O)NC1(C(F)(F)F)NC(=O)N(CCc2ccccc2)C1=O (stereo not drawn) | -15.9 | . | 22.5% | 1.2% | 0.1 | 3.0
Nc1c(C(=O)NCc2cccs2)nnn1CC(=O)Nc1cccc(Cl)c1 | -6.0 | . | -6.4%[15.4 µM] | 8.1% | 0.6 | -0.5

Screening data as filed in PubChem BioAssay.

No enrichment for hits. About 2.1% of those tested had a hit in this group.
